Methyltransferases = Primary Screen for Target Class Profiling of Small Molecule Inhibitors of Methyltransferases | purified enzyme, MTase-Glo SAH luminescence; hits give low values | calls only at 40 µM | 25,000 tested, 3.9% active | AID 1745853, 2022; active = -50% or lower on at least one of six enzymes; inconclusive = the cases between; inactive = as a rule above -30% on all six;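 further: enzymes were COMT GAMT GNMT HNMT NNMT and PNMT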
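Each enzyme was assayed with SAM and its substrate. SAH formation detected by MTase-Glo luminescence; single-point 40 uM screen[…].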
Calls only. On the % scale 0 is the no-effect control and ±100 the full control effect. This is a subset, so the mix of outcomes need not match the whole.

Screening COc1ccc(CN2C(=O)c3cc4ccccc4n3CC2(C)C(=O)NC2CCCCC2)cc1 (centres undefined) returned Methyltransferases inactive.
CSc1ccc(CNC(=O)c2cc3n(n2)CC(C)(C(=O)NC2CCCCC2)N(C)C3=O)cc1 (centres undefined) was read as Methyltransferases inactive.
Screening COCCn1cnnc1C(C)NC(=O)CCc1nc(-c2ccccc2OC)no1 (centres undefined) returned Methyltransferases inactive.
Screening O=C(COc1ccccc1)Nc1ccc2c(c1)CN(Cc1ccccc1F)C(=O)CO2 returned Methyltransferases inactive.
Screening COc1ccc(CNC(=O)c2cc3n(n2)CC(C)(C(=O)NCc2ccc(C)cc2)N(C)C3=O)c(OC)c1 (centres undefined) returned Methyltransferases inactive.
`COc1ccc2cc3n(c2c1)CC(C)(C(=O)NC1CCCC1)N(c1ccccc1OC)C3=O` (centres undefined) gave Methyltransferases inactive.
CCCn1c(=O)c2ccc(C(=O)NC(C)C)cc2n2c(=O)n(CC(=O)Nc3cccc(CC)c3)nc12 was read as Methyltransferases inactive.
For CC(C)(O)C(=O)N1CCN(c2ccc(C(F)(F)F)c(C3=C(c4c[nH]c5ccccc45)C(=O)NC3=O)c2)CC1 the results were Methyltransferases active.
`Cc1cccc(N2CCN(S(=O)(=O)c3cc4[nH]c(=O)[nH]c4cc3Br)CC2)c1C` gave Methyltransferases inactive.
For O=C(Cc1ccccc1)Nc1ccc2n(c1=O)C[C@H]1C[C@@H]2CN(S(=O)(=O)c2ccc(Cl)cc2)C1 the results were Methyltransferases inactive.
Screening CCc1nc(NCCOC)ncc1C(=O)O returned Methyltransferases inactive.
Screening CSc1cccc(NS(=O)(=O)c2ccc3[nH]c4c(c3c2)CCCC4)c1 returned Methyltransferases inactive.
Screening COc1ccc(CN2C(=O)c3cc4ccccc4n3CC2(C)C(=O)NC2CCCC2)cc1OC (centres undefined) returned Methyltransferases inactive.
Screening O=C(NCc1cccs1)c1cc2nc(-c3ccco3)cc(C(F)(F)Cl)n2n1 returned Methyltransferases inconclusive.
O=C1CN(Cc2ccc(F)cc2Cl)S(=O)(=O)c2ccccc2N1Cc1ccccc1 was read as Methyltransferases inactive.
For CN(C)C[C@@H]1CN(c2ncccn2)C[C@H]1NS(=O)(=O)c1ccc(Cl)cc1 the results were Methyltransferases inactive.
For CC(O)C1NC(=O)C2CCCN2C1=O (centres undefined) the results were Methyltransferases inactive.
CCS(=O)(=O)N1CC(CC#N)(n2cc(-c3ncnc4[nH]ccc34)cn2)C1 was read as Methyltransferases inconclusive.
For CCOC(=O)C1CCCN(C(=O)c2cc(-c3ccc(Cl)cc3Cl)c3nncn3n2)C1 (centres undefined) the results were Methyltransferases inactive.
Screening O=C(N[C@H](c1cccs1)C1CC(O)C1)c1cnn2cc(CCO)cnc12 (some centres undefined) returned Methyltransferases inactive.
Screening CN1C(=O)c2cc(C(=O)NCCCN3CCCC3)nn2CC1(C)C(=O)NC1CCCCC1 (centres undefined) returned Methyltransferases inactive.
`CCCn1c(=O)c2ccc(C(=O)NC3CCCC3)cc2n2c(SCC(N)=O)nnc12` gave Methyltransferases inactive.
For CCc1cc2c(cc3n2CC(C)(C(=O)NC2CCCCCC2)N(Cc2cccc(F)c2)C3=O)s1 (centres undefined) the results were Methyltransferases inactive.
`Cc1ccc(SC2CCN(Cc3nc(CCc4ccccc4)no3)CC2)cc1` gave Methyltransferases inactive.
`CCCn1c(=O)c2ccccc2n2c(=O)n(CC(=O)N3CCN(c4ccc(F)cc4)CC3)nc12` gave Methyltransferases inactive.
`CC1CCC(NC(=O)C2(C)Cn3c(ccc3-c3ccccc3)C(=O)N2CCc2cccs2)CC1` (centres undefined) gave Methyltransferases inactive.
CC1(C(=O)NC2CCCC2)Cn2cnc(C(=O)NCCc3ccco3)c2C(=O)N1C1CC1 (centres undefined) was read as Methyltransferases inactive.
`COc1ccccc1CCC(=O)N1CC(C(=O)N(C)C)C2(CCOCC2)C1` (centres undefined) gave Methyltransferases inactive.
Screening Cc1cccc2ncc(C(=O)N3CCC4(CCNC(=O)CC4)CC3)c(=O)n12 returned Methyltransferases inactive.
`O=C1Nc2ccccc2/C1=C/c1cc(O)ccc1O` gave Methyltransferases active.
Screening COc1cc(C(=O)OC[C@@]2(O)CO[C@@H](O[C@H]3[C@H](Oc4ccc(C(=O)O)cc4OC)O[C@H](CO)[C@@H](O)[C@@H]3O)[C@@H]2O)ccc1O returned Methyltransferases inactive.
C=C1C(=O)O[C@@H]2[C@H]3O[C@]3(C)CCC=C(C)CC[C@@H]12 was read as Methyltransferases inactive.
`O=C(N1CCOCC1)N1C2CCC1CN(c1ccc(C(F)(F)F)cc1)C2` gave Methyltransferases inactive.
CCSC(=N)N was read as Methyltransferases inactive.
Screening O=C(NC1C[C@H]2CC[C@@H](C1)N2C(=O)c1ccn[nH]1)c1ccncc1 (some centres undefined) returned Methyltransferases inactive.
COc1ccc2c(c1)c(NC(C)=O)c1n2CC(C)(C(=O)NC2CCCCCC2)N(CCN(C)C)C1=O (centres undefined) was read as Methyltransferases inactive.
O=C(NCc1ccccc1C(F)(F)F)c1cccc2c1CCN2C(=O)C1CC1 was read as Methyltransferases inactive.
Cc1noc(C2CC3(CCN(C(=O)CCc4c[nH]c5ccccc45)CC3)CN2C)n1 (centres undefined) was read as Methyltransferases inactive.
For CCOc1ccc(C(=O)Cn2nc3n(C(C)C)c(=O)c4ccc(C(=O)NC(C)C)cc4n3c2=O)cc1 the results were Methyltransferases inactive.
`O=C(O)c1cccnc1CN1CCCC(c2nc(-c3ccccc3)no2)C1` (centres undefined) gave Methyltransferases inactive.

At a glance, five of the compounds above.
COc1ccc2c(c1)c(NC(C)=O)c1n2CC(C)(C(=O)NC2CCCCCC2)N(CCN(C)C)C1=O (centres undefined) was read as Methyltransferases inactive.
O=C(NCc1ccccc1C(F)(F)F)c1cccc2c1CCN2C(=O)C1CC1 was read as Methyltransferases inactive.
Cc1noc(C2CC3(CCN(C(=O)CCc4c[nH]c5ccccc45)CC3)CN2C)n1 (centres undefined) was read as Methyltransferases inactive.
For CCOc1ccc(C(=O)Cn2nc3n(C(C)C)c(=O)c4ccc(C(=O)NC(C)C)cc4n3c2=O)cc1 the results were Methyltransferases inactive.
`O=C(O)c1cccnc1CN1CCCC(c2nc(-c3ccccc3)no2)C1` (centres undefined) gave Methyltransferases inactive.

Part of the list above in order of formula weight, rising:
`O=C1Nc2ccccc2/C1=C/c1cc(O)ccc1O` gave Methyltransferases active.
Screening O=C(NC1C[C@H]2CC[C@@H](C1)N2C(=O)c1ccn[nH]1)c1ccncc1 (some centres undefined) returned Methyltransferases inactive.
COc1ccc2c(c1)c(NC(C)=O)c1n2CC(C)(C(=O)NC2CCCCCC2)N(CCN(C)C)C1=O (centres undefined) was read as Methyltransferases inactive.

The main list resumes, repeating the two entries before the break.
For CCOc1ccc(C(=O)Cn2nc3n(C(C)C)c(=O)c4ccc(C(=O)NC(C)C)cc4n3c2=O)cc1 the results were Methyltransferases inactive.
`O=C(O)c1cccnc1CN1CCCC(c2nc(-c3ccccc3)no2)C1` (centres undefined) gave Methyltransferases inactive.
Screening O=C(C1CC1)N1CCn2c(nn(-c3ccc(F)cc3)c2=O)C1 returned Methyltransferases inactive.
Screening COc1cccc(CN2C(=O)c3cc4ccccc4n3CC2(C)C(=O)NCc2ccccc2OC)c1 (centres undefined) returned Methyltransferases inactive.
For COc1cccc(NC[C@@H](O)Cn2c3ccc(Br)cc3c3cc(Br)ccc32)c1 the results were Methyltransferases inconclusive.
`CN1C(=O)c2cc(C(=O)NCCN3CCCC3)nn2CC1(C)C(=O)NCc1ccc(F)cc1` (centres undefined) gave Methyltransferases inactive.
Cc1nc(N2CCC(NC(=O)COc3ccccc3)CC2)cc(C(F)(F)F)n1 was read as Methyltransferases inactive.
`CCc1cc2c(cc3n2CC(C)(C(=O)NC2CCCCCC2)N(c2cc(C)ccc2C)C3=O)s1` (centres undefined) gave Methyltransferases inactive.
Screening CCn1nc(CNC(=O)Cc2cccc(Cl)c2)c2ccccc21 returned Methyltransferases inactive.
O=C(c1ccncc1)N1CCCC(Cc2noc(-c3cnccn3)n2)C1 (centres undefined) was read as Methyltransferases inactive.
`COc1ccc2c(c1)OCC(CNC(=O)c1ccc(-c3nnn(C)n3)cc1)C2` (centres undefined) gave Methyltransferases inactive.
For COc1cc(O)c2c(c1)C1=C[C@H](O)[C@@H](O)C[C@]1(C)OC2=O the results were Methyltransferases inactive.
For Cc1ccc(CNC(=O)CCn2ccc3cc(S(=O)(=O)N4CCCCC4)ccc32)cc1 the results were Methyltransferases inactive.
`CC1OC(OC2C(C)OC(OC3C(OC(=O)/C=C/c4ccc(O)cc4)C(CO)OC(OC4(COC(=O)/C=C/c5ccc(O)cc5)OC(CO)C(O)C4O)C3OC3OCC(O)(CO)C3O)C(O)C2O)C(O)C(O)C1O` (centres undefined) gave Methyltransferases inactive.
For CCOCCCNc1nc2c(-c3cccc(F)c3)nnn2c2ccc(Cl)cc12 the results were Methyltransferases inactive.
Cc1ccc(-c2cc3c(=O)n(CCNC(=O)c4cc(F)ccc4F)ccn3n2)c(C)c1 was read as Methyltransferases inactive.
For Cc1nn(C)c(C)c1CCC(=O)NCCc1ncc(C)n1C1CCCCC1 the results were Methyltransferases inconclusive.
COCCC1(NC(=O)C2CC2)CCN(C(=O)c2ccccn2)CC1 was read as Methyltransferases inactive.
C=C1CC2C3(C)C(O)CC(=O)C(C)(C)C3C(OC(C)=O)C(OC(C)=O)C2(C)C2C(=O)OC(C)(C(=O)OC)C(=O)C12C (centres undefined) was read as Methyltransferases inactive.
For CCc1cc2c(cc3n2CC(C)(C(=O)NC2CCCCC2)N(Cc2ccccc2Cl)C3=O)s1 (centres undefined) the results were Methyltransferases inactive.
Screening O=C(Nc1nc2ccccc2n1CCc1ccccc1)c1ccccc1 returned Methyltransferases inactive.
Screening C[C@@H]1CC[C@@]23CC[C@]4(C)[C@@](C=CC5[C@@]6(C)CC[C@H](O)C(C)(C)C6CC[C@]54C)(OC2=O)C3[C@H]1C (some centres undefined) returned Methyltransferases inconclusive.
For Cc1ccc(-c2ncc(C(=O)N3CCC(Nc4ncccn4)CC3)c(=O)[nH]2)cc1 the results were Methyltransferases inactive.
For COC(=O)c1cc2n(n1)CC(C)(C(=O)NC1CCCCCC1)N(c1cccc(Cl)c1)C2=O (centres undefined) the results were Methyltransferases inactive.
For COc1ccc(C(=O)N2CCC(N3C(=O)[C@H](OC)[C@@H]3c3ccncc3)CC2)c(OC)c1 the results were Methyltransferases inactive.
Screening CCOC(=O)N1CCC(NC(=O)c2ccccc2C2CCNC2)CC1 (centres undefined) returned Methyltransferases inactive.
Screening CN(CCCN1C(=O)c2cc3occc3n2CC1(C)C(=O)NC1CCCCC1)C1CCCCC1 (centres undefined) returned Methyltransferases inactive.
CC1CCN(S(=O)(=O)c2ccc3c(ccn3CCC(=O)NC3CCCCC3)c2)CC1 was read as Methyltransferases inactive.
COc1ccc(S(=O)(=O)N2C[C@@H]3C[C@H](C2)c2c(NC(=O)c4ccccc4)ccc(=O)n2C3)cc1 was read as Methyltransferases inactive.
`O=C(/C=C/C#Cc1cccc(NS(=O)(=O)c2ccccc2)c1)NO` gave Methyltransferases inconclusive.
Screening CSc1cccc(N2C(=O)c3cc(-c4ccco4)nn3CC2(C)C(=O)NC2CCCCC2)c1 (centres undefined) returned Methyltransferases inactive.
Cc1ccc(N2C(=O)CSc3c(c4ccccc4n3C)C2C(=O)NCCCOC(C)C)cc1Cl (centres undefined) was read as Methyltransferases inactive.
Screening Cn1cccc1CN[C@H]1[C@H](O)[C@@H](N2CCCC2)[C@@H]2OC[C@H]1O2 returned Methyltransferases inactive.
`CCN1C(=O)c2cc(C(=O)NCc3cccc(OC)c3)nn2CC1(C)C(=O)NC1CCCC1` (centres undefined) gave Methyltransferases inactive.
Screening COCC1CN(C(C)=O)CC12CCN(C(=O)CC1CCCCC1)CC2 (centres undefined) returned Methyltransferases inactive.
For Cc1ccc(CN2C(=O)c3cc(C(C)(C)C)nn3CC2(C)C(=O)NCc2ccccc2)cc1 (centres undefined) the results were Methyltransferases inactive.
Screening CC(C)c1ccc(N2CC(C(=O)N(C)C3CCSCC3)CC2=O)cc1 (centres undefined) returned Methyltransferases inactive.
For CC(C)CCN1C(=O)c2cc3sccc3n2CC1(C)C(=O)NC1CCCC(C)C1C (centres undefined) the results were Methyltransferases inactive.
`CCOC(=O)N1CCN(C(C(=O)O)c2ccc(OC)nc2OC)CC1` (centres undefined) gave Methyltransferases inactive.
CCCn1c(=O)c2ccc(C(=O)NC(C)CC)cc2n2c(=O)n(Cc3c(F)cccc3Cl)nc12 (centres undefined) was read as Methyltransferases inactive.
`C=CC(C)(C)C12C=C(OC)C(=O)N3C(C(C)C)C(=O)NC31N(OC)c1ccccc12` (centres undefined) gave Methyltransferases inactive.
`COc1cccc(CCC(=O)N2CCC3(CC2)N=C(c2ccccc2)NO3)c1` gave Methyltransferases inactive.
For COc1ccccc1-c1cc(C(=O)NC2CC2)nn2cnnc12 the results were Methyltransferases inactive.
CN1CCc2cc(Cl)c(O)cc2[C@@H](c2cccc3c2OCC3)C1 was read as Methyltransferases inactive.
For CSc1ccc(CCNC(=O)CCn2ccc3cc(S(=O)(=O)N4CCCCC4)ccc32)cc1 the results were Methyltransferases inactive.
For Fc1ccccc1CN1CCNc2cnc(OCc3cccnc3)cc2C1 the results were Methyltransferases inactive.
Screening COc1cccc([S+](=O)([O-])N2CC(N3CCc4ccccc43)C2)c1 returned Methyltransferases inactive.
Screening COc1ccc(/C=C/C(=O)O[C@@H]2[C@@H](OC(C)=O)[C@@H](OC(C)=O)[C@H](O[C@H]3[C@@H]4C=CO[C@@H](O[C@@H]5O[C@H](CO)[C@@H](O)[C@H](O)[C@H]5O)[C@@H]4[C@@]4(CO)O[C@@H]34)O[C@H]2C)cc1O returned Methyltransferases active.
O=C(c1cn(CC2CCCO2)nn1)N1CCN(c2cccc(C(F)(F)F)c2)CC1 (centres undefined) was read as Methyltransferases inactive.
For CC(C)OCCCn1c(=O)c2ccccc2n2c(=O)n(CC(=O)Nc3cc(F)ccc3F)nc12 the results were Methyltransferases inactive.

Source: PubChem BioAssay (National Center for Advancing Translational Sciences (NCATS))
